Screening results (PubChem BioAssay)
MgrA-DNA mod: S. aureus MgrA-DNA binding modulation; inhibition, %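 (about 10 µg/mL by stock and volumes)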; fluorescence polarization; AID 602314; actives 0.13% (n = 84,000);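 active = above 50% in either of two replicates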;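 also: 0% = protein plus DNA without compound and 100% = DNA alone without protein; higher means less MgrA bound to DNA so lower polarization; one replicate is shown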
Sa helicase inh: blocks Staphylococcus aureus DNA helicase. purified S. aureus helicase, fluorescence unwinding assay; about half of the hits fall short of the stated cut. inhibition, %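 (tested at about 80 µM)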. actives 0.05% (n = 120,000);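 active = both duplicates at 50% or more, or one of them with a favoured structure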;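 also: 0% = mean of negative control wells and 100% = mean of positive control wells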
An asterisk follows results filed as active; x = no result given; & = joins results of further samples.

entry | mol | MgrA-DNA mod | Sa helicase inh
1 | CCCOC(=O)c1c(NC(=O)CSc2nc(-c3ccco3)cc(C(F)(F)F)n2)sc(C(=O)N(C)C)c1C | x | -6
2 | Cc1nnc(SCc2ccc(C(=O)O)cc2)s1 | x | 2
3 | Clc1ccc(COc2ccc(-c3noc(C4CC4)n3)cc2)cc1 | -1.6 | x
4 | CCCN1C/C(=C/c2ccc3c(c2)OCO3)C(=O)/C(=C/c2ccc3c(c2)OCO3)C1 | x | -20
5 | CCOC(=O)c1cc(-c2ccccc2)sc1N | -0.6 | 14
6 | Cc1ccc(C(=O)COC(=O)c2cc(C)oc2C)cc1 | x | 7
7 | Cc1ccccc1Cn1c2ccccc2c2cnn(CC(=O)N3CCCC3)c(=O)c21 | 2.8 | 12
8 | COC(=O)COc1ccc2c(=O)c(-c3ccc4c(c3)OCCO4)c(C)oc2c1 | x | 4
9 | Cc1oc(CC(C)C)c(CN2CCOCC2)c1C(=O)O | -2.2 | 9
10 | COc1ccc(-n2c(-c3ccccc3)csc2=NC(=O)c2ccccc2)cc1 | -1.8 | -5
11 | O=C(O)C1CC2C=CC1CC2 (configuration not stated) | -3.5 | x
12 | Clc1ccc(N2CCCC3CCCCC32)nn1 (configuration not stated) | x | 15
13 | O=C(Cc1ccccc1)OCc1nc2ccccc2s1 | 3.5 | -24
14 | O=C(COn1c(=O)n(COC(=O)c2ccccc2)c2ccccc21)c1ccccc1 | 1.9 | -2
15 | CNC(=O)c1ccccc1-c1ccccc1 | 2.4 | 5
16 | CC(C)C(=O)N1CCN(S(=O)(=O)c2ccc(F)cc2)CC1 | x | -10
17 | CC(C)/C(=N/O)c1ccccc1 | -0.3 | x
18 | CC1(C)CC(=O)c2sc(NC(=O)C3=COCCO3)nc2C1 | x | -19
19 | C=CCn1c(-c2ccco2)nn(C2CC(O)(O)C3OCC2O3)c1=S (configuration not stated) (tested in a mixture with another compound) | -0.5 | 14
20 | C1=CCC(/C=N/n2cnnc2)CC1 (configuration not stated) | x | -7
21 | c1cncc(-c2noc(-c3cc(C4CC4)[nH]n3)n2)c1 | x | 4
22 | CCOC(=O)C1(CCC#N)C(=O)C=C(c2ccc(OC)cc2)CC1c1ccc2ccccc2c1 (configuration not stated) | 0.2 | x
23 | CCc1nc2ccccc2n1CCC(N)=O | -0.9 | 15
24 | O=C(Nc1cccc(F)c1)NC1CCCC1 | -1.1 | 6
25 | COc1ccc(CC(CC(=O)O)C(=O)O)cc1 (configuration not stated) | -0.6 | 5
26 | CCn1c(=O)c(-c2ccccc2)c(O)c2ccccc21 | x | -14
27 | CC1=CC(=NC#N)C(C)=CC1=NC#N | x | 2
28 | Cc1ccc(NC(=O)COc2cccc3c2CCNC3=O)cc1Cl | x | 0
29 | CCOC(=O)c1ccc(NC(=O)CS(=O)(=O)c2cn(CC)c3ccccc23)cc1 | x | 18
30 | CCOC(=O)c1oc2ccccc2c1COC(=O)c1c(C)nn(-c2ccc(F)cc2)c1Cl | x | 7
31 | Cc1cccc2c1N(C(=O)c1cc(C(F)(F)F)cc(C(F)(F)F)c1)CCC2 | -0.6 | x
32 | CN(C(=O)CCCOc1ccc(Cl)cc1Cl)C1CCCCC1 | -2.3 | 5
33 | Cc1cc(C(C)(C)C)ccc1OCCN(C)C | -0.6 | 9
34 | COc1cc(C=C2C(=O)NC(=O)NC2=O)ccc1OC(=O)c1cc(F)c(F)cc1Cl | 6.5 | x
35 | O=C(Nc1cccc([N+](=O)[O-])c1)c1cc(S(=O)(=O)Nc2ccc(Br)cc2)ccc1Cl | -0.8 | x
36 | COc1ccc2nc(NC(=O)CN(C)S(=O)(=O)c3cccs3)sc2c1 | -0.8 | 2
37 | O=C(CSc1nc2ccsc2c(=O)n1NC(=O)COc1ccccc1Br)NCc1ccco1 | x | 1
38 | CCCCNc1nc2ccccc2n1CC(=O)Nc1ccc(S(=O)(=O)N2CCCC2)cc1 | x | 7
39 | N#Cc1ccc(CN(c2ccncc2)S(=O)(=O)c2ccccc2)cc1 | x | -11
40 | Cc1cccc(C)c1NC(=S)N1CC(C)OC(C)C1 (configuration not stated) | 0.5 | x
41 | CCCCn1c(SCC(=O)C(C#N)c2nc(C)cs2)nc2cc(S(N)(=O)=O)ccc21 (configuration not stated) | x | 7
42 | COC(=O)C1=C(C)N(C(C)c2ccccc2)C(=O)/C1=C\c1ccco1 (configuration not stated) | 2.3 | 11
43 | COCCNc1nc2ccccc2c2nc(-c3cccnc3)nn12 | x | -17
44 | COc1ccc2c(=O)c(Oc3cc(C)ccc3C)coc2c1 | 0.4 | 1
45 | O=C1N=C(O)CN1/N=C/c1ccc(-c2ccc([N+](=O)[O-])cc2)o1 | -3.4 | x
46 | O=C(NCCc1ccc(Cl)cc1)c1nc(-c2cccnc2)no1 | x | 25
47 | N#Cc1ccc(N2C(=O)c3ccccc3C2=O)cc1 | -3.3 | -3
48 | C=CCn1c(Sc2ncnc3sc(C)c(C)c23)nnc1C1CCCCC1 | x | -9
49 | Cc1ccc(SCCC(=O)N(C)C)cc1 | 3.3 | 20
50 | CCOc1ccc2c(c1)-c1c(ssc1=S)C(C)(C)N2C | 1.1 | 9

Other compounds follow.
entry | mol | MgrA-DNA mod | Sa helicase inh
51 | COc1ccccc1NC(=O)Cc1nc(CN2CC(C)OC(C)C2)cs1 (configuration not stated) | x | -5
52 | CN(C)c1ccc(/C=C(\C#N)S(C)(=O)=O)c(F)c1C#N | -1.1 | x
53 | CN(C(=O)c1cccc(Nc2ccc(-c3ccc4c(c3)OCCO4)nn2)c1)C1CCCCC1 | -0.2 | 2
54 | CCOc1ccc(C2C3=C(CCCC3=O)N(CC)C3=C2C(=O)CCC3)cc1 | 0.3 | -3
55 | O=C(NCCc1ccccn1)c1nc2ccccc2c(=O)[nH]1 | 3.5 | x
56 | O=C1CCC/C(=N\NC(=O)Cc2cn3ccsc3n2)C1 | x | -12
57 | O=C(CSc1ncnc2ccccc12)N1CCCC1 | x | -24
58 | O=C(Nc1nnc(C2CC2)s1)C(F)(F)F | -3.7 | x
59 | COC(=O)c1ccc(COC(=O)c2oc3ccccc3c2COC(C)C)o1 | x | -11
60 | Cc1ccc(C)c2c(N)c3c(nc12)CCCCC3 | 2.2 | 12
61 | O=C(CCc1nc2ccccc2[nH]c1=O)OCc1ccc(Cl)cc1 | -1.5&-3.5 | -24&4
62 | O=S(=O)(Cc1ccco1)Cc1nc(-c2ccc(-c3ccccc3)cc2)cs1 | 0.2 | x
63 | FC(F)(F)c1ccc(N2CCCC2)nc1 | 2.9 | 5
64 | O=C(O)CNc1ccc(Cl)cc1C(=O)c1ccccc1 | x | 9
65 | CC1(C)CCc2cc(C3SCCS3)ccc2O1 | -2.2 | x
66 | CCNc1c2c3c(cccc3n(C)c1=O)C(=O)c1ccccc1-2 | x | -84
67 | Cc1ccc(-c2nc(C(=O)Nc3ccc(Cl)cc3)c3n2CCCCC3)cc1 | 2.3 | 6
68 | COC(=O)c1ccc(CSc2n[nH]c(-c3ccccc3)n2)o1 | 0.9 | 13
69 | CCCCNC(=O)c1cc(Cc2c(C)n[nH]c2C)c(N2CCOCC2)s1 | x | -12
70 | Cc1sc2nc(CN3CCOCC3)nc(NC(C)C)c2c1C | x | 6

7 records picked at random from those above, as already listed:
entry | mol | MgrA-DNA mod | Sa helicase inh
44 | COc1ccc2c(=O)c(Oc3cc(C)ccc3C)coc2c1 | 0.4 | 1
15 | CNC(=O)c1ccccc1-c1ccccc1 | 2.4 | 5
7 | Cc1ccccc1Cn1c2ccccc2c2cnn(CC(=O)N3CCCC3)c(=O)c21 | 2.8 | 12
2 | Cc1nnc(SCc2ccc(C(=O)O)cc2)s1 | x | 2
16 | CC(C)C(=O)N1CCN(S(=O)(=O)c2ccc(F)cc2)CC1 | x | -10
58 | O=C(Nc1nnc(C2CC2)s1)C(F)(F)F | -3.7 | x
54 | CCOc1ccc(C2C3=C(CCCC3=O)N(CC)C3=C2C(=O)CCC3)cc1 | 0.3 | -3

(more compounds)
entry | mol | MgrA-DNA mod | Sa helicase inh
71 | COc1cc(OC)c2c(-c3ccccc3)cc(=O)oc2c1 | x | 17
72 | COc1ccc(Nc2cc(C)nc3ccc(OC)cc23)cc1 | x | 63*
73 | CN(C)S(=O)(=O)c1cccc(-c2nnc3n2N=C(c2ccccc2)C(CC(=O)O)S3)c1 (configuration not stated) | x | 16
74 | CCCC(C)C(=O)Nc1nnc(C(F)(F)F)s1 (configuration not stated) | 4.2 | 12
75 | NS(=O)(=O)c1ccc(CNC(=O)c2ccccn2)cc1 | x | -19
76 | CCN(CC)C(=O)CSc1cc(=O)n(CC)c2ccccc12 | 1.5 | -11
77 | CC(C)Cn1c(O)c(NC(=O)N=N)c2ccccc21 | x | 2
78 | CCOc1nc(NC(C)C)nc(NC(C)C)n1 | -2.9 | 13
79 | Cc1oc2c(cc(O)c3ccccc32)c1C(=O)O | x | -19
80 | CCCCn1c(N)c(N(C)C(=O)c2ccc(NC(=O)CSc3nnnn3C)cc2)c(=O)[nH]c1=O | x | 26

Next part:
no.	SMILES	MgrA-DNA mod	Sa helicase inh
81	COC(=O)CSc1nc(C)cc(N2CCOCC2)n1	x	-2
82	O=S(=O)(Nc1cccc2ccccc12)c1ccccc1	-0.8	x
83	CC1=C(C(=O)OCCOc2ccccc2)C(c2cccc([N+](=O)[O-])c2)NC(=O)N1C (configuration not stated)	2.5	x
84	COc1cc(C(=O)NNC(=S)Nc2cccc(C(F)(F)F)c2)cc(OC)c1OC	5.0	x
85	O=C(CSc1nc2ccccc2o1)c1cc2ccccc2o1	x	-13
86	CCOC(=O)CSc1nnc(CNc2ccc(C)cc2C)n1-c1ccccc1	1.3	2
87	Cc1cc(C)n2nc(S(=O)(=O)NC3CCCCC3)nc2n1	3.6	0
88	O=C(CSc1n[nH]c(=O)n1-c1cccnc1)c1ccc(N2CCOCC2)cc1	x	-6
89	Cc1ccc(N(Cc2ccccc2F)S(C)(=O)=O)c(C)c1	4.7	19
90	Cc1ccc(/C=c2\s/c(=C(/C#N)C(=O)N3CCCC3)n(Cc3ccco3)c2=O)s1	x	-68
91	O=C(O)c1sccc1Cl	-0.3	x
92	Cn1nc(Cl)c(Cl)c1Oc1ccccc1	1.4	x
93	Cc1csc2sc(-c3ccnc(SCC(=O)c4ccccc4)n3)c(C)c12	-0.2	x
94	CC(C)(C)c1ccc(NC(=O)c2ccco2)c(NC(=O)C(Cl)Cl)c1	1.4	x
95	COc1cccc2c1NC(c1ccccc1[N+](=O)[O-])C1CC=CC21 (configuration not stated)	-2.5	x

Continued; the last 2 above are carried over.
no.	SMILES	MgrA-DNA mod	Sa helicase inh
94	CC(C)(C)c1ccc(NC(=O)c2ccco2)c(NC(=O)C(Cl)Cl)c1	1.4	x
95	COc1cccc2c1NC(c1ccccc1[N+](=O)[O-])C1CC=CC21 (configuration not stated)	-2.5	x
96	CN(C)CCCC1(O)c2ccccc2CCc2ccccc21	2.7	2
97	CCCn1c(CCC(=O)NCc2ccc(Cl)cc2)nc2cccnc21	x	4
98	CCCCN1C(=O)C2ON(c3ccccc3)C(c3cccs3)C2C1=O (configuration not stated)	x	24
99	O=C1c2ccccc2C(=O)N1CNc1ccc(Oc2ccc(Cl)cc2)cc1	-0.7	x
100	CC(C)(C)C1COC(CC2=NC(C(C)(C)C)CO2)=N1 (configuration not stated)	-1.2	-1
101	COC(=O)c1ccccc1NC(=O)Nc1ncn(Cc2cccc(C(F)(F)F)c2)n1	-0.7	4
102	O=C(N=C=S)c1ccc(Cl)cc1	x	24
103	Cc1coc2cc3oc(=O)c(CCC(=O)N4CCCC4)c(C)c3cc12	x	-14
104	CN(C(=O)c1cc2c(Cl)nc3ccccc3c2s1)C1CCCCC1	0.8	10
105	O=C(COC(=O)c1ccc(Br)o1)Nc1c(Cl)cccc1Cl	-0.6	8
106	COC(=O)C(C)Oc1ccc(C(=O)O)cc1OC (configuration not stated)	0.5	15
107	CC(=O)Nc1ccc(S(=O)(=O)N(C)C)cc1	x	0
108	COCCNC(=O)Cn1ncn2nc(-c3ccccc3)cc2c1=O	x	3
109	COc1ccc(CCNC(=O)C(Sc2ccc(Cl)cc2)c2ccccc2)cc1OC (configuration not stated)	2.2	x
110	CC(=O)NC(c1ccccc1)c1c(O)ccc2ccccc12 (configuration not stated)	x	8

Continued; it opens with the two that closed the last part.
no.	SMILES	MgrA-DNA mod	Sa helicase inh
109	COc1ccc(CCNC(=O)C(Sc2ccc(Cl)cc2)c2ccccc2)cc1OC (configuration not stated)	2.2	x
110	CC(=O)NC(c1ccccc1)c1c(O)ccc2ccccc12 (configuration not stated)	x	8
111	Cc1nc(C(F)(F)F)ccc1C(=O)Oc1ccc2c(c1)OCO2	-0.4	x
112	CCOC(=S)NC(C)(C)C	x	-24
113	Cc1ccccc1NC(=O)C(C)(C)c1ccccc1	-1.4	-9
114	Cc1ccc(Nc2nc(Nc3ccc(C)cc3)nc(-n3sc(=S)nc3C)n2)cc1	2.0	8
115	Cc1nn(CCCC(=O)NCc2ccccc2)c(=O)c2nccn12	x	-3
116	CC(Oc1ccc(F)cc1)C(=O)NN (configuration not stated)	x	-3
117	Oc1ccc(/C=N/N=C/C2=C(N3CCOCC3)C(=C\c3ccccc3)/CC2)c(O)c1	x	-304
118	CC1CC(C)CN(C(=O)COC(=O)/C=C/c2ccco2)C1 (configuration not stated)	3.1	1
119	O=C1CC2(CCCC2)C(=O)N1c1ccc(OC(F)(F)F)cc1	0.3	x
120	CC(C(=O)OCC(=O)c1ccc[nH]1)N1C(=O)c2ccccc2C1=O (configuration not stated)	x	-5
121	O=C(OC[C@H]1O[C@H](OC(=O)c2cc(O)c(O)c(OC(=O)c3cc(O)c(O)c(O)c3)c2)[C@H](OC(=O)c2cc(O)c(O)c(OC(=O)c3cc(O)c(O)c(O)c3)c2)[C@@H](OC(=O)c2cc(O)c(O)c(OC(=O)c3cc(O)c(O)c(O)c3)c2)[C@@H]1OC(=O)c1cc(O)c(O)c(OC(=O)c2cc(O)c(O)c(O)c2)c1)c1cc(O)c(O)c(OC(=O)c2cc(O)c(O)c(O)c2)c1	9.7	x
122	N#Cc1c(-c2ccco2)cc(-c2cccs2)nc1OCc1ccc(F)cc1	3.8	x
123	CCN(CC)C(=O)CSc1nc2cc3c(cc2c(=O)n1Cc1ccc(OC)cc1)OCO3	2.0	12
124	Nc1cc(C(F)(F)F)ccc1-n1ccnc1	x	11

These rows are one share of the data, so the mix of outcomes need not match the whole.
